Source: PubChem (several laboratories)
Bead autofluor: flagged as autofluorescent in microsphere protease counterscreen; compound autofluorescence counterscreen, microsphere flow cytometry; active compounds read high; fluorescence intensity (no concentration beside the values); 360,000 tested, 3.1% active; AID 624483;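 active = at least 3 SD above the mean of all compounds, about 16000 in these data; inconclusive = too few beads counted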;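 also: 100 nL of 1 mM stock went into each well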
RN4220 kill: kills Staphylococcus aureus RN4220; inhibition, % (test concentration not listed); S. aureus RN4220 growth, OD600, 16 h; 330,000 tested, 0.33% active;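 active = z-score of -3 or lower and OD600 up to 0.18 on both plates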;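 also: plate controls were untreated cells for no effect and reference antibiotic for full effect; stock transfer was 100 nL into about 80 µL; one replicate is shown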
BJeLR lethal: kills HRASV12-expressing BJeLR cells; BJeLR (HRASV12) viability, CellTiter-Glo ATP luminescence, 48 h; reference of the scale not given here; inhibition, % (no concentration beside the values); 300,000 tested, 0.17% active;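 active = replicate mean above 50%; inconclusive = above 50% but judged a plate artefact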;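 also: 50 nL library stock added to about 25 µL; numbers are from one replicate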
Mtb hypoxia inh: inhibitors of hypoxia-regulated fluorescent reporter in Mycobacterium tuberculosis | 300,000 tested, 0.1% active | fluorescence inhibition, % (test concentration not listed) | M. tuberculosis hypoxia-regulated fluorescent reporter, fluorescence;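 active = 35 to 45% if threefold the growth effect, above 45% if 1.5-fold the growth effect; inactive = the rest, general growth blockers included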;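 also: wells of about 50 µL received 100 nL stock; 0% = vehicle wells and 100% = reference inhibitor wells; whole bacteria with a GFP reporter of the hypoxia response; strong numbers were not always called active; many hits fall short of the cut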
Sa ugtP lethal: compounds lethal to S. aureus RN4220 ugtP deletion mutant; OD600 growth, 16 h; some inactives read as strong as hits; growth inhibition, % (no concentration beside the values); 330,000 tested, 0.54% active; AID 1259309;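 active = z-score under -3 and OD600 up to 0.15 on both plates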;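 also: plate controls were untreated wells for no effect and antibiotic for full effect; wells of about 80 µL received 100 nL stock; the first replicate is given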
PrP 5UTR inh: inhibition of PrP 5' UTR reporter expression; cell-based PrP 5' UTR mRNA reporter, plate reader; inhibition, % (no concentration beside the values); 340,000 tested, 0.35% active; AID 488862;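 active = every replicate at 50% or more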;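 also: 0 = median of the neutral control wells; tested in H4 reporter cells; numbers are from one replicate; inactives centre near -14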
Mtb hypoxia inh growth: recorded beside Mtb hypoxia inh, whose call it bears; growth inhibition, %; measured here: M. tuberculosis growth (absorbance);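 0% = vehicle and 100% = reference antibiotic; read after six days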
Numbers without * were called inactive; u = inconclusive; x = not tested or not shown. This is a random part of the collection. About 4.1% of those tested had a hit in this group.

SMILES	Bead autofluor	RN4220 kill	BJeLR lethal	Mtb hypoxia inh	Mtb hypoxia inh growth	Sa ugtP lethal	PrP 5UTR inh
COC(=O)c1ccc(CNC(=O)c2c3c(nc4ccccc24)CCN(Cc2ccccc2)C3)cc1	4406	x	-5	x	x	x	-14
CC(=NNC(=O)c1ccoc1C)c1cccc2ccccc12	x	0.0	x	18	16	12	x
CCSc1nnc(NC(=O)c2csc3c2CCC(C)C3)s1 (configuration not stated)	10092	5.0	-7	11	4	-4	-37
Cc1nn(C)cc1-c1csc(N)n1	4345	1.2	-5	6	9	3	-34
COc1ccc(C2=NN(C(=O)CSC3=NN4CCCC(=O)N=C4S3)C(c3cccc(OC)c3OC)C2)cc1 (configuration not stated)	6017	2.8	-1	8	11	-7	-9
CCN1/C(=C/c2cc[n+](CCCS(=O)(=O)[O-])c3ccccc23)Sc2ccccc21	2400	4.6	0	18	6	10	-24
COC(=O)c1ccccc1NC(=O)N1CCN(c2ccc(F)cc2)CC1	4459	11	5	17	9	1	-21
CCOc1cc(/C=N/NC(=O)c2cccc(S(=O)(=O)N3CCCC3)c2)ccc1OCC(=O)N(C)C	4717	x	6	x	x	x	-6
CCCc1nc2ccccc2c(C(=O)OCC(=O)Nc2ccc(S(=O)(=O)N3CCOCC3)cc2)c1CC	6269	-9.3	5	3	7	-9	-27
Cc1ccc(N(C(=O)NC2CCCCC2)C2=NCCCCC2)cc1	2039	0.8	-7	13	14	-4	-37
CCn1cc(CNC(=O)c2cc(COc3ccc(F)cc3F)on2)cn1	2638	2.5	-4	8	0	6	-25
Cn1nnnc1SCC(=O)N1CCN(C(c2ccccc2)c2ccccc2)CC1	3566	-2.1	3	x	x	3	-3
CCOC(=O)C1(Cc2cccc(F)c2)CCN(C(=O)C2CCCO2)CC1 (configuration not stated)	2340	6.0	1	8	3	4	-17
CC(C)(C)C(=O)Nc1c2c(nn1-c1ccc(F)cc1)CSC2	4450	9.0	-8	3	-3	5	-16
COc1cc(O)c(NC(C)=O)c2nonc12	5994	3.5	8	4	-2	6	-16
Cc1ccc(C=NNC(=O)CSc2nc3ccccc3o2)cc1	x	2.6	x	5	8	5	x
CCO[C@H]1OC(C(=O)N2CCN(Cc3ccc4c(c3)OCO4)CC2)=C[C@@H](c2ccc(C(F)(F)F)cc2)[C@@H]1CCCO	4750	x	-16	x	x	x	-8
O=C1CCCC(O)=C1Sc1cc(Cl)c(Cl)cc1Cl	2907	0.8	-1	2	19	8	x
CCc1nc2sc3c(=O)n(N)cnc3c2c2c1COC(C)(C)C2	x	12	0	10	3	-2	x
O/N=C(\c1ccc(Cl)cc1)c1cc2ccccc2o1	9092	x	-1	x	x	x	-35
CC(C)c1ccc(/C=N/NC(=O)CC(=O)NCc2ccccc2)cc1	4247	x	7	x	x	x	-25
Clc1ccc(Cl)c2sc(N3CCOCC3)nc12	u	21	1	9	2	-17	-18
O=[N+]([O-])c1ccccc1NN=C1CC2CC=CC12 (configuration not stated)	x	7.5	x	11	9	6	x
CCN(Cc1ccncc1)C(=O)c1ccc(Br)o1	5914	0.4	10	0	5	5	-38
Cc1[nH]c2ccccc2c1Cc1nnc(SCC(N)=O)o1	5571	1.6	10	x	x	0	-26
O=C(N/N=C/c1c(O)n(Cc2ccccc2)c(=O)[nH]c1=O)c1ccccc1	2095	x	0	x	x	x	-18
COc1ccc(N(C)S(=O)(=O)c2ccc(Cl)c(C(=O)NCC(C)(C)N3CCOCC3)c2)cc1	8333	2.2	x	-18	-4	-2	-3
CC(=NNc1ccc(Cl)cc1)c1cnnc(-c2ccccc2)n1	x	2.2	x	7	-1	-7	x
O=C(CNS(=O)(=O)c1ccccc1)N/N=C/c1ccc(O)cc1	2688	x	-8	x	x	x	-13
O=C(Cc1ccc(F)cc1)NN=Cc1ccncc1	x	6.2	x	12	-9	12	x

Not a retest: 19 of the compounds above.
SMILES	Bead autofluor	RN4220 kill	BJeLR lethal	Mtb hypoxia inh	Mtb hypoxia inh growth	Sa ugtP lethal	PrP 5UTR inh
CCCc1nc2ccccc2c(C(=O)OCC(=O)Nc2ccc(S(=O)(=O)N3CCOCC3)cc2)c1CC	6269	-9.3	5	3	7	-9	-27
Cc1ccc(N(C(=O)NC2CCCCC2)C2=NCCCCC2)cc1	2039	0.8	-7	13	14	-4	-37
CCn1cc(CNC(=O)c2cc(COc3ccc(F)cc3F)on2)cn1	2638	2.5	-4	8	0	6	-25
Cn1nnnc1SCC(=O)N1CCN(C(c2ccccc2)c2ccccc2)CC1	3566	-2.1	3	x	x	3	-3
CCOC(=O)C1(Cc2cccc(F)c2)CCN(C(=O)C2CCCO2)CC1 (configuration not stated)	2340	6.0	1	8	3	4	-17
CC(C)(C)C(=O)Nc1c2c(nn1-c1ccc(F)cc1)CSC2	4450	9.0	-8	3	-3	5	-16
COc1cc(O)c(NC(C)=O)c2nonc12	5994	3.5	8	4	-2	6	-16
Cc1ccc(C=NNC(=O)CSc2nc3ccccc3o2)cc1	x	2.6	x	5	8	5	x
CCO[C@H]1OC(C(=O)N2CCN(Cc3ccc4c(c3)OCO4)CC2)=C[C@@H](c2ccc(C(F)(F)F)cc2)[C@@H]1CCCO	4750	x	-16	x	x	x	-8
O=C1CCCC(O)=C1Sc1cc(Cl)c(Cl)cc1Cl	2907	0.8	-1	2	19	8	x
CCc1nc2sc3c(=O)n(N)cnc3c2c2c1COC(C)(C)C2	x	12	0	10	3	-2	x
O/N=C(\c1ccc(Cl)cc1)c1cc2ccccc2o1	9092	x	-1	x	x	x	-35
CC(C)c1ccc(/C=N/NC(=O)CC(=O)NCc2ccccc2)cc1	4247	x	7	x	x	x	-25
Clc1ccc(Cl)c2sc(N3CCOCC3)nc12	u	21	1	9	2	-17	-18
O=[N+]([O-])c1ccccc1NN=C1CC2CC=CC12 (configuration not stated)	x	7.5	x	11	9	6	x
CCN(Cc1ccncc1)C(=O)c1ccc(Br)o1	5914	0.4	10	0	5	5	-38
Cc1[nH]c2ccccc2c1Cc1nnc(SCC(N)=O)o1	5571	1.6	10	x	x	0	-26
O=C(N/N=C/c1c(O)n(Cc2ccccc2)c(=O)[nH]c1=O)c1ccccc1	2095	x	0	x	x	x	-18
COc1ccc(N(C)S(=O)(=O)c2ccc(Cl)c(C(=O)NCC(C)(C)N3CCOCC3)c2)cc1	8333	2.2	x	-18	-4	-2	-3

Later entries:
SMILES	Bead autofluor	RN4220 kill	BJeLR lethal	Mtb hypoxia inh	Mtb hypoxia inh growth	Sa ugtP lethal	PrP 5UTR inh
COc1ccc(Cl)cc1C(=O)Nc1ccc(CN2CCCCC2)cc1	5509	-2.7	0	6	-3	-2	-26
O=C(OCC(=O)N1CCOCC1)c1ccccc1Cc1ccccc1	2509	0.7	-1	-6	10	14	-69
CC(C)C1=NN(C(=O)c2cccnc2)C(O)(C(F)(F)F)C1 (configuration not stated)	5947	3.8	7	7	2	2	-13
FC(F)(F)c1ccc(CN2CCNCC2)cc1	2539	1.4	2	3	13	6	-12
Cc1cccc(C)c1NC(=S)NC(=O)c1ccc(Br)o1	4227	6.6	15	x	x	-2	-11
Cc1ccc2cc([N+](=O)[O-])ccc2n1	5719	3.7	6	14	7	5	-14
N#C/C(=C/c1ccccc1)c1nn(CCO)c(N)c1C#N	3755	3.6	-1	x	x	2	-22
CCOC(=O)c1c(NC(=O)C(C)N2CCN(C(=O)c3ccco3)CC2)sc2c1CCCC2 (configuration not stated)	4252	-1.0	2	-2	2	5	-14
CN(Cc1ccc(F)cc1)C(=O)c1cccc(S(=O)(=O)N2CCN(c3ccc(F)cc3)CC2)c1	x	1.1	-1	4	-4	13	-20
CCOC(=O)CSc1ncnc2c1cnn2-c1ccc(C)cc1	3366	19	-13	7	-21	14	-9
COc1ccc(-c2noc(CCCOc3ccccc3)n2)cc1OC	6204	-5.9	4	x	x	16	-13
COc1ccc2c(c1[N+](=O)[O-])CCC/C2=N/OC(=O)c1cccc2ccccc12	2127	x	9	x	x	x	-32
COc1ccc(/C=N/NC(=S)Nc2ccccc2)cc1COc1ccc(F)cc1F	2056	x	-11	x	x	x	-14
C=C1CCN([C@@H](CC(C)C)C(=O)NCc2cc(OC)c(OC)c(OC)c2)S(=O)(=O)c2ccccc21	3698	x	14	x	x	x	-20
Cn1c(N)c(C(=O)Nc2cccc(Cl)c2)c(=O)n(C)c1=O	3950	5.6	-15	17	8	3	-36
O=C(/C=C/c1ccc([N+](=O)[O-])cc1)N1CCN(S(=O)(=O)c2cccs2)CC1	4475	1.0	1	-8	-2	9	-15
O=C1N=c2ccccc2=C1c1sc(=S)n(Cc2ccccc2Cl)c1O	4617	30	37	11	5	-16	-25
CN(CC(=O)O/N=C(\N)c1ccccn1)S(=O)(=O)c1ccccc1	19036*	2.6	-15	0	3	-1	-21
CC(C)=CCN1CCN(Cc2cnc(C)s2)CC1CCO (configuration not stated)	3585	3.8	3	6	-2	7	-19
O=c1c2c(nc3c(-c4ccccc4)c[nH]n13)CCCC2	3236	-0.6	5	-2	5	-9	-12
COCC(C)N1CCC(Oc2ccc(C(=O)NCc3ccccn3)cc2)CC1 (configuration not stated)	4449	0.5	-5	0	2	-2	1
CCOC(=O)C1=C(C)Nc2nc(SCC)nn2C1c1ccc(OC)cc1 (configuration not stated)	3244	-2.3	-16	-15	-13	-5	-4
COc1cc(C2=NOC(C(=O)Nc3c(C)n(C)n(-c4ccccc4)c3=O)C2)cc(OC)c1OC (configuration not stated)	4617	1.3	-10	-10	4	2	-12
CCN1C(=C(C#N)C#N)C=Cc2cc(C)ccc21	4105	7.7	6	-6	-4	8	-18
CC1(C)C=Cc2c(c3ccccc3[nH]c2=O)O1	u	4.4	0	x	x	-22	-3
CCOC(=O)N1CCN(C(=O)CNC(=O)c2nn(-c3ccc(OC)cc3OC)c(=O)c3ccccc23)CC1	3957	-2.0	-15	3	11	-1	-19
COc1cccc(C(=O)O/N=C(\N)c2ccccn2)c1	3530	4.5	0	6	-14	1	52*
O=C(COc1ccccc1)NCCSCc1ccc(Cl)cc1	1919	3.1	-10	-1	7	-12	-17
Cc1cc(S(=O)(=O)NC2CCN(Cc3ccccc3)CC2)c(C)cc1Cl	3898	-1.5	-1	13	5	-4	-25
O=S(=O)(N/N=C\c1cccc(F)c1)c1ccccc1	4273	x	-3	x	x	x	-28
COc1cc2c(cc1OC)C(NC(=O)c1ccc(C)cc1)CC2=O (configuration not stated)	3263	4.0	-22	2	0	4	-20
C[C@@H]1NC(=O)[C@H](CCCN=C(N)N)NC(=O)c2cc([N+](=O)[O-])cc(I)c2NCCC[C@@H](C(N)=O)NC1=O	2918	x	4	x	x	x	-13
